KCNQ2 pot = KCNQ2 (rat) channel potentiation; O88943; B-score at 10 µM; actives 0.54% (n = 310,000); CHO-K1 KCNQ2, FluxOR thallium flux fluorescence; stronger effect = higher value;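 active = fluorescence ratio B-score at least 3 SD of library B-scores, with initial fluorescence B-score within 3 SD, cut at about 5.3 in these data; same plate scores as AID 2156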;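 note: B-score of peak minus minimum over baseline fluorescence ratio after K+ and Tl+ stimulus; positive B-score means potentiation of KCNQ2 with more thallium influx and brighter signal; only the inactives scoring about 0 or higher are listed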
Target sequence (O88943 whole entry, looked up): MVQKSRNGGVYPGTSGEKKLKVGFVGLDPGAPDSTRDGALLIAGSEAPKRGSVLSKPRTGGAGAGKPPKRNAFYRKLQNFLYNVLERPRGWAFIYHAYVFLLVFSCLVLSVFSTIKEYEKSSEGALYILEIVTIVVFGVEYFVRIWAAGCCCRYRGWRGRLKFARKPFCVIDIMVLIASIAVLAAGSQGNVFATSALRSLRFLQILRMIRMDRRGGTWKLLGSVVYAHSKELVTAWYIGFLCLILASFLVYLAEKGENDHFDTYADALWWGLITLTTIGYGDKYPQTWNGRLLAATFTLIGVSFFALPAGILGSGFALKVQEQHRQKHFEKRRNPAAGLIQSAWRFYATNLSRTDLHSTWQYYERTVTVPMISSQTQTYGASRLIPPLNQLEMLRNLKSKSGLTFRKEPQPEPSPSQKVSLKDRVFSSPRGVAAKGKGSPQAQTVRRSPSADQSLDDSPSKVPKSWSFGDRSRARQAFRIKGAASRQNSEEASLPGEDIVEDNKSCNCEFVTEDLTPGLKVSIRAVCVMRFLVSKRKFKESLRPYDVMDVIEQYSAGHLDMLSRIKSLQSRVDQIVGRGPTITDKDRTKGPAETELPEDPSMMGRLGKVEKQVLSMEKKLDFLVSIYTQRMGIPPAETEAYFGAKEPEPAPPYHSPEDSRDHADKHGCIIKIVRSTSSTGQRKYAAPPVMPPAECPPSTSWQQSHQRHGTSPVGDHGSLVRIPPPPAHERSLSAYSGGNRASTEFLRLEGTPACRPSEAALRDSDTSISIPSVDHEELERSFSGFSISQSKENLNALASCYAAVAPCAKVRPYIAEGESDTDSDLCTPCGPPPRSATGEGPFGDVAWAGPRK
KCNQ2 pot baseline = also measured in KCNQ2 pot; calls as there; B-score; compound at 10 µM; measured here: initial fluorescence intensity artifact check;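 brightness before thallium and not channel activity; 0 = typical well and far values either way flag optical interference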
Starred values were filed as active, the others as inactive.

Order of values – KCNQ2 pot	KCNQ2 pot baseline
> COC(=O)C1CC(c2c(OC)cc(OC)cc2OC)=NO1 (stereo unspecified)
 : 0.42	-2
> Cc1cc[n+](CC[n+]2ccc(C)cc2)cc1
 : 0.58	-2.8
> Cn1c(CCNC(=O)c2ccc(Cl)c(Cl)c2)nnc1SCc1ccc(Cl)c(Cl)c1
 : 1.1	1.3
> O=C(NNC(=O)c1ccccc1O)c1ccc(Cl)c(S(=O)(=O)N2CCc3ccccc32)c1
 : 0.42	-0.47
> Cc1c(C(=O)N2CCCC2)c(S(=O)(=O)NCCc2ccccc2)c(C)n1C
 : 0.82	-0.7
> O=C1c2ccccc2C(=O)N1Cc1cc(Cl)c(O)c([N+](=O)[O-])c1
 : 1.6	0.48
> CCN(c1ccccc1)S(=O)(=O)c1nnc(NC(=O)C(C)C)s1
 : 2.8	-1.2
> COc1ccc(N2Cc3cccc(C(=O)O)c3C2=O)cc1
 : 0.51	0.61
> C[C@@H]([C@@H](O)c1ccccc1)N(C)C(=O)C(N)Cc1ccccc1 (stereo partly specified)
 : 0.42	-0.4
> O=C(NCc1ccc(Cl)cc1)C1CCCN(S(=O)(=O)c2cnc[nH]2)C1 (stereo unspecified)
 : 0.88	-1.3
> O=C(OCc1cccc([N+](=O)[O-])c1)c1cnccn1
 : 1.6	-0.69
> C/C(=N/OC(=O)CC(C)C)c1cc(-c2ccc(Cl)cc2)no1
 : 0.57	-0.91
> Cc1ccc(C(=O)O/N=C(\N)Cc2cccc3ccccc23)cc1
 : 0.72	1.3
> CCO[C@H]1OC(C(N)=O)=C[C@@H](c2ccc(Br)cc2)[C@@H]1CCCO
 : 0.31	1.4
> C=CCNc1nc(SC)nc2ccsc12
 : 2.3	0.51
> COC(=O)CN(C#N)c1nc(SC)nc(N(C)C)n1
 : 0.79	0.8
> COc1ccc2nc3sc(C(=O)NCCN4CCc5ccccc5C4)cc3cc2c1
 : 3.3	-0.42
> O=C(CSc1nnc(NC(=O)c2cccc(F)c2)s1)NCC1CCCO1 (stereo unspecified)
 : 0.42	1
> CN(C)C(=O)CN1C(=O)C2CC=C(Cl)CC2C1=O (stereo unspecified)
 : 0.46	-0.19
> C=Cn1c(C(=O)O)ccc1-c1ccc(OC)cc1
 : 0.15	-0.77
> Cc1ccc(S(=O)(=O)N2CCN(Cc3ccccn3)CC2)cc1
 : 0.6	0
> COc1ccc(C(=O)N2CCOC23CCN(c2ncccn2)CC3)cc1
 : 0.74	0.03
> CN(Cc1cn[nH]c1-c1cc2ccccc2o1)CC1CCOCC1
 : 1.2	0.24
> Cn1ccsc1=NC(=O)c1ccccc1F
 : 0.8	-2.2
> C=CCNC(=O)c1ccc(-c2nc(-c3ccc(Cl)c(Cl)c3)cs2)cc1
 : 0.13	0.64
> O=C(COC(=O)CCc1nc2ccccc2s1)Nc1cccc(S(=O)(=O)N2CCOCC2)c1
 : 0.73	4.2
> CCCn1c(N)c(N(CCOC)C(=O)c2cc(Cl)nc3ccccc23)c(=O)[nH]c1=O
 : 0.7	-0.31
> O=C(CN1CCN(C2CCCCC2)CC1)NCCC1=CCCCC1
 : 0.29	-1.4
> CCOC(=O)c1ccc(NC(=O)c2cccc3c2C(=O)N(CC2CCCO2)C3)cc1 (stereo unspecified)
 : 0.06	-1.1
> CC(C)c1ccc(N=c2c([N+](=O)[O-])nn(-c3ccc4c(c3)OCCO4)n2O)cc1
 : 0.05	-0.23
> COc1ccc(S(=O)(=O)Nc2ccccc2C(=O)NCc2cccnc2)cc1C
 : 0.93	-1.6
> CCN(CC)S(=O)(=O)c1cc(NC(=O)c2cc(-c3ccccn3)nc3ccccc23)ccc1C
 : 0.66	0.59
> Cc1cc(Nc2ccc(C(=O)N3CCCCC3)cc2)c2cccc(C)c2n1
 : 1.5	-1.9
> COc1ccc(NC(=O)c2ccccc2)c([N+](=O)[O-])c1
 : 0.4	0.03
> COC(C[C@H](O)C[C@H](O)[C@@H](C)OCc1ccccc1)OC
 : 0.64	-0.83
> Cc1ccccc1CNc1ccc(C(CC(N)=O)NC(=O)c2ccc(Br)cc2)cc1[N+](=O)[O-] (stereo unspecified)
 : 1.4	-0.91
> CC(CCN1CCN(c2ccc(F)cc2)CC1)c1ccccc1 (stereo unspecified)
 : 0.24	-0.02
> CCNS(=O)(=O)c1ccc(NC(=O)Nc2cccc(OC)c2)cc1
 : 2	-1.2
> Cc1ccc2nc(C(Cl)(Cl)Cl)nc(N/N=C/c3ccncc3)c2c1
 : 0.13	0.08
> Cc1cc(C)nc(N2CCCC(C(=O)NC3CCCC3)C2)n1 (stereo unspecified)
 : 0.97	3.9
> O=C(NCCC1=CCCCC1)c1ccc(Br)o1
 : 4	-0.69
> Cc1nccc(-c2ccc(-n3c(C)ccc3C)cc2)n1
 : 0.27	-0.88
> O=C(NC(=S)N1CCCCC1)c1csc([N+](=O)[O-])c1
 : 2.8	-0.01
> COc1cccc(CNC(=O)CCCNS(=O)(=O)c2cccs2)c1
 : 0.06	0.45
> CCCC(=O)NCCSC
 : 0.99	0.83
> COCCNC(=O)COc1cc(=O)n(C)c2ccccc12
 : 0.5	2.6
> COC(=O)CNC(=O)C1Cc2ccccc2CN1S(=O)(=O)c1cccs1 (stereo unspecified)
 : 0.58	0.17
> Cc1nc2nc[nH]n2c(=O)c1CCC(C)C
 : 1.2	-0.43
> CCCCN(C(=O)c1ccc(S(=O)(=O)N(CC)CC)cc1)c1c(N)n(CCC)c(=O)[nH]c1=O
 : 0.11	0.32
> COC(=O)c1nn(-c2ccccc2)c(=O)cc1Oc1ccccc1
 : 1.1	-2.7
> CCOC(=O)c1cc(S(=O)(=O)N2CCN(c3ccccc3OC)CC2)cn1C
 : 0.21	0.41
> O=C1NC(NS(=O)(=O)c2ccccc2)(C(F)(F)F)C(=O)N1Cc1ccccc1 (stereo unspecified)
 : 0.64	0.03
> CCNS(=O)(=O)c1ccc(CCC(=O)N2CCN(c3ccc(OC)cc3)CC2)cc1
 : 0.53	-0.41
> O=C(CN(Cc1ccco1)C(=O)CNS(=O)(=O)c1ccc(Cl)cc1)NCC1CCCO1 (stereo unspecified)
 : 1.2	-3
> O=C(Nc1cccc(-c2ccc(N3CCOCC3)nn2)c1)c1ccccc1
 : 1.8	0
> Cc1ccc(/C=C/C(=O)O)cc1S(=O)(=O)Nc1ccc(C(=O)O)cc1
 : 1.6	1.1
> COc1ccc(N(CC(=O)N/N=C/c2ccc3c(c2)OCO3)S(=O)(=O)c2ccccc2)cc1
 : 0.55	-0.53
> CNC(=O)C1CC(=O)N(CCc2ccccc2)C(=Nc2ccc(OC)cc2)S1 (stereo unspecified)
 : 0.22	-1.2
> Cn1ncc(N=Cc2ccccc2[N+](=O)[O-])c1C(N)=O
 : 0.09	-0.59
> Cc1ccc(S(=O)(=O)NCCCCCC(N)=O)cc1
 : 0.07	2.4

(further entries)
Order of values – KCNQ2 pot	KCNQ2 pot baseline
> CCCCC(=O)Nc1ccc(C(=O)NNC(=O)c2ccco2)cc1
 : 1.8	-0.17
> COc1ccccc1N1CCN(C(=O)c2cnn3cccnc23)CC1
 : 0.38	-3.4
> COc1ccc(C)cc1S(=O)(=O)N(C)CC(N)=O
 : 0.75	3.9
> COc1cc(C)c(S(=O)(=O)NC2CC(C)(C)NC(C)(C)C2)cc1C
 : 0.2	0.2
> CSc1cccc(NC(=O)c2ccc(Cl)nc2)c1
 : 2.4	0
> CCOc1ccc(N2CC(C(=O)Nc3cccc(S(=O)(=O)N4CCCC4)c3)CC2=O)cc1 (stereo unspecified)
 : 0.04	1.6
> O=C1CCCN1CCC1CCN(C(=S)Nc2ccc(F)cc2)CC1
 : 0.04	-0.02
> O=C(NN=C1CCCCCCC1)C(=O)NC1CCCCC1
 : 0.55	0.7
> Cc1ccc(NC(=O)CSCC(=O)O)c(C)c1
 : 1.2	-0.58
> COc1ccccc1NC(=O)C(C)Sc1nc2ccccc2c(=O)n1CC1CCCO1 (stereo unspecified)
 : 0.9	-0.95
> O=C(Nc1ccc(S(=O)(=O)Nc2ncccn2)cc1)c1ccccc1NS(=O)(=O)c1ccc(Cl)cc1
 : 1.7	-0.64
> CCOC(=O)c1c(NC(=S)NC(=O)/C=C/c2cccs2)sc(C)c1C
 : 1	-0.2
> O=C(NCC(c1ccco1)N1CCCC1)c1ccc(S(=O)(=O)Nc2ccccc2F)cc1 (stereo unspecified)
 : 0.06	-0.76
> CCOC(=O)C1(Cc2cccc(F)c2)CCN(C(=O)Cn2cnnn2)CC1
 : 0.45	-2
> CCc1nnc(NC(=O)CSc2nnc3nc(C)cc(C)n23)s1
 : 0.49	0.97
> CCOc1ccccc1N1CCN(C/C=C/c2ccc(N(C)C)cc2)CC1
 : 0.6	-0.61
> CC1CCCC(C)N1CCCNC(=O)c1cc2c(=O)n(C)c3ccccc3c2n1C (stereo unspecified)
 : 0.13	0.55
> O=C(CCC1CCCN(C(=O)c2cccnc2)C1)NCc1ccccc1F (stereo unspecified)
 : 0.08	-1.3
> Cc1ccc2nc(C)cc(N/N=C/c3cccc(O)c3)c2c1
 : 2.4	-0.32
> COCCn1c(C)cc(C(=O)CN2C(=O)NC3(CCCCCCC3)C2=O)c1C
 : 1	-0.34
> COc1cccc(N2CCN(c3ncnc4c3cnn4-c3ccc(C)cc3C)CC2)c1
 : 0.93	-0.07
> COc1cccc(OCCSc2nnc3sc4ccccc4n23)c1
 : 0.18	-0.69
> N#CCO/N=C(\c1ccccc1)c1ccncc1
 : 1	1.2
> COc1ccc(N2CCN(S(=O)(=O)c3ccc(C(=O)NC4CCCC4)cc3)CC2)cc1
 : 0.43	-2.6
> O=C(CSc1nc(-c2ccc(F)cc2)cc(C(F)(F)F)n1)Nc1ccc2c(c1)OCO2
 : 1.5	-1.9
> COc1ccccc1CN1C(=O)c2ccncc2C1=O
 : 0.64	-0.32
> Cc1c(N2C(=O)/C(=C/c3ccccc3)SC2=S)c(=O)n(-c2ccccc2)n1C
 : 1.4	-0.29
> O=C(CSc1cccc[n+]1[O-])Nc1cccc(S(=O)(=O)NC2=NCCCCC2)c1
 : 1.3	-0.24
> COc1cc(-c2cn(S(=O)(=O)c3cccc4nsnc34)nc2N)cc(OC)c1OC
 : 1.6	-3
> COc1cccc(NC(=O)c2ccncc2)c1
 : 0.68	-0.02

Entries of single compounds, looked up by structure:
COc1ccccc1CN1C(=O)c2ccncc2C1=O across the screens: KCNQ2 pot = 0.64; KCNQ2 pot baseline = -0.32
CC1CCCC(C)N1CCCNC(=O)c1cc2c(=O)n(C)c3ccccc3c2n1C (stereo unspecified) across the screens: KCNQ2 pot = 0.13; KCNQ2 pot baseline = 0.55
O=C(CCC1CCCN(C(=O)c2cccnc2)C1)NCc1ccccc1F (stereo unspecified) across the screens: KCNQ2 pot = 0.08; KCNQ2 pot baseline = -1.3

Reprinted at random: three compounds from above, in no set order.
Order of values – KCNQ2 pot	KCNQ2 pot baseline
> CC1CCCC(C)N1CCCNC(=O)c1cc2c(=O)n(C)c3ccccc3c2n1C (stereo unspecified)
 : 0.13	0.55
> N#CCO/N=C(\c1ccccc1)c1ccncc1
 : 1	1.2
> COc1ccc(N2CCN(S(=O)(=O)c3ccc(C(=O)NC4CCCC4)cc3)CC2)cc1
 : 0.43	-2.6

The list continues.
Order of values – KCNQ2 pot	KCNQ2 pot baseline
> COCCN(C(=O)COC(=O)CCSc1ccc(F)cc1)c1c(N)n(Cc2ccccc2)c(=O)[nH]c1=O
 : 0.59	-0.92
> O=C(O)/C=C/c1cccc(OCc2ccccc2)c1
 : 0.1	-1.3
> O=C(NCCc1ccccc1)c1ccc(Br)o1
 : 0.85	-0.6
> N/C(Cc1ccc(Cl)cc1)=N\OC(=O)c1ccc2ccccc2c1
 : 1.1	1.1
> CCN1CCN(c2nc3c(C)cccn3c(=O)c2/C=C(\C#N)C(=O)NC)CC1
 : 1.7	1.1
> O=C(CSc1nncn1-c1ccccc1)N1CCCC1
 : 3.2	0.68
> COc1ccc(/C=C2\SC(=O)N(CCNC(=O)C3CC4C=CC3C4)C2=O)cc1 (stereo unspecified)
 : 0.7	0.15
> O=C(NCc1ccc2c(c1)OCO2)c1c(F)c(F)c(F)c(F)c1F
 : 1.8	0.7
> O=C(Nc1ccc(C(=O)N2CCCCC2)cc1)c1ccccc1Cl
 : 0.17	-0.68
> Nc1nc(=S)c2ncn(C3CCCC3)c2[nH]1
 : 0.34	-3
> OCCCc1nc2ccccc2[nH]1
 : 1.2	1.4
> COc1cccc2cc(C(=O)N(C)C3CCN(C)CC3)c(=O)oc12
 : 0.15	-0.02
> O=C(CSCC(=O)N1CCN(c2ccccc2)CC1)Nc1nc(-c2ccc(Cl)s2)cs1
 : 0.45	0.52
> Cc1ccc(S(=O)(=O)NCc2n[nH]c(=S)n2C)cc1
 : 0.69	-1.4
> CC(=O)c1ccc(NC(=O)C(Cc2ccccc2)n2cccc2)cc1 (stereo unspecified)
 : 1.5	0.25
> NS(=O)(=O)c1ccc(N/N=C/c2ccccc2Br)cc1
 : 0.04	1.9
> CC(C(=O)Nc1ncc([N+](=O)[O-])s1)N1C(=O)c2ccccc2S1(=O)=O (stereo unspecified)
 : 0.4	0.15
> Cc1ccc(N=Cc2cc(C)n(C3CCCC3)c2C)cc1
 : 0.6	-0.8
> COc1ccc(NC2CCCN(C(=O)c3cccc(N(C)C)c3)C2)cc1 (stereo unspecified)
 : 1.8	-0.4
> CC(C)CC(=O)Nc1ccc(-c2cn3cccnc3n2)cc1
 : 0.38	0.07
> CC(C)(C)NC(=O)CSc1nc(N)c(-c2ccccc2)c(=O)[nH]1
 : 0.89	-0.97

This is a subset, so the mix of outcomes need not match the whole.
